Bioassay records deposited in PubChem BioAssay by National Center for Advancing Translational Sciences (NCATS).
TRPML1 agonist = qHTS for Agonists of the Human Mucolipin Transient Receptor Potential 1 (TRPML1); Mucolipin-1 (Homo sapiens), Q9GZU1; TRPML1-expressing cells, Ca2+ dye fluorescence, FDSS; host cell line not named in the record; reference of the full effect not given here; activation, % (concentration not given with the values); 410,000 tested, 0.12% active; AID 624414, 2012; in the data active = activation above about 50%; inconclusive = about 30% to 50%; inactive = below about 30%; note: 0% is about no effect; the text of the record puts the active cut at 80%
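In this qHTS format, compounds were pin-transferred onto Ca8-dye-loaded TRPML1-DL cells induced with Tet overnight, and intracellular Ca2+ fluorescence was recorded kinetically for 110 s after a 10 s baseline. A subsequent 4uM final 54-4 (EC80) addition followed by a second 110 s read served as the antagonist phase.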
TRPV1 PAM = HTS Assay for Compounds that Act as Potentiators of the Vanilloid Receptor 1; Transient receptor potential cation channel subfamily V member 1 (Homo sapiens), Q8NER1; TRPV1-expressing cells, Fluo-8 calcium influx, capsaicin EC20 potentiation; host cell line not named in the record; control for the full effect not named in the record; potentiation, % at 8.33 µM; 320,000 tested, 0.02% active; AID 540277, 2011; active means potentiation above 80%; inconclusive means 30% to 80%; inactive means below 30%; note: 0% is about no effect
Target sequence (Q8NER1 whole entry, looked up): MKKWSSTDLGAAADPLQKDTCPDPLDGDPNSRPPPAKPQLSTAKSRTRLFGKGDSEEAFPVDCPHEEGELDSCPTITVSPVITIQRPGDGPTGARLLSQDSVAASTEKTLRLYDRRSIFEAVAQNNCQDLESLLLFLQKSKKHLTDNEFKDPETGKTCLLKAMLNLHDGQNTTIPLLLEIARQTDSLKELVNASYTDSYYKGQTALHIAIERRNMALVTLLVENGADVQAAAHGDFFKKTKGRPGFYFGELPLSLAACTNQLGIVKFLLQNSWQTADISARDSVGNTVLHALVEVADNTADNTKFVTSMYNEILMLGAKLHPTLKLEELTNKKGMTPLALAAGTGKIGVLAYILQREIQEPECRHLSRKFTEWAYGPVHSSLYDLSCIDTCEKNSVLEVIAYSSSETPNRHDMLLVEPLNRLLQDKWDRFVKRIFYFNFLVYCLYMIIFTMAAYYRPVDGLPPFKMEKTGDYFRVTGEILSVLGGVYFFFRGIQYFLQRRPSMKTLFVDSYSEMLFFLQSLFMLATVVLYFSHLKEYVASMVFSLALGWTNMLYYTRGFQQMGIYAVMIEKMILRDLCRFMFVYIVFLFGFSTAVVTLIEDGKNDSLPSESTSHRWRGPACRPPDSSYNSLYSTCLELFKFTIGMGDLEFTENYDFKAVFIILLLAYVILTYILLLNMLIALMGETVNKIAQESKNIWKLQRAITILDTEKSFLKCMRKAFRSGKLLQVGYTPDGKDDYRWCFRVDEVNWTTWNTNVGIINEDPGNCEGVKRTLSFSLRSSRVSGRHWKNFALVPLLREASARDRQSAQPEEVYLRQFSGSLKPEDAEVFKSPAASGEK
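Cells expressing TRPV1 were dye-loaded with Fluo-8 and read kinetically: 10 s baseline, 3 min after compound (agonist portion), then 2 min after EC20 capsaicin (allosteric enhancer portion). Calcium-bound dye fluorescence at 480/520 nm.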
Six1-Eya2 blk = qHTS Assay for Inhibitors of the Six1/Eya2 Interaction | AlphaScreen GST-Six1/His-Eya2 binding, biochemical; hits give low values; control for the full effect not named in the record | 360,000 tested, 0.56% active | Homeobox protein SIX1 (Homo sapiens) + Protein phosphatase EYA2 (Homo sapiens), … | AID 651725, 2012 | activity change, % (no concentration beside the values); in the data active = activity change below about -65%; inconclusive = about -30% to -65%; inactive = above about -30%; note: % is set by controls: 0 for no effect and ±100 for the full control effect; compound concentration not given in the record
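Compounds are tested against tagged Six1 and Eya2 proteins bridged by glutathione donor and nickel acceptor beads; after a one-hour incubation at 37 °C without light, AlphaScreen emission is recorded.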
CtBP-E1A blk = qHTS Assay for Inhibitors of the CtBP/E1A Interaction. CtBP / adenovirus E1A interaction (AlphaScreen). AlphaScreen GST-E1A/His-CtBP binding, 1536-well; hits give low values; control for the full effect not named in the record. activity change, % (test concentration not listed). 340,000 tested, 0.49% active. AID 651724, 2012; in the data active means activity change below about -65%; inconclusive means about -30% to -65%; inactive means above about -30%; note: % is set by controls: 0 for no effect and ±100 for the full control effect; compound concentration not given in the record
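Protein mix (5X: 125 nM each GST-E1A, His-CtBP) was incubated with pinned compound 2 h at 37 deg C in dark, in 50 mM Tris pH 8.0 buffer with 300 mM NaCl. Glutathione donor and nickel acceptor beads followed; AlphaScreen signal read after 1 h.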
D2 PAM = Beta-Arrestin HTS for Positive Allosteric Modulators of the Human D2 Dopamine Receptor: Potentiators. DiscoveRx D2 beta-arrestin cells, luminescence, 90 min; 100% = 57 uM dopamine signal. AID 624464, 2012. 360,000 tested, 0.23% active. potentiation, % (no concentration beside the values); active = potentiation of 50% or more; inconclusive = 30% to 50%; inactive = 30% or less;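 note: compound concentration not given in the record; tested on top of an EC20 dose of dopamine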
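PathHunter beta-arrestin assay in DiscoveRx D2 cells. Compounds were added with an EC20 of dopamine (50 nM final) for 90 min at 37 deg C. Luminescence was read 1 h after detection reagent, with 57 uM dopamine as the EC100 control.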
TRPML1 inh = qHTS for Inhibitors of the Human Mucolipin Transient Receptor Potential 1 (TRPML1); 390,000 tested, 0.02% active; activity change, negative = inhibition, % (concentration not given with the values); AID 624415, 2012; TRPML1-inducible cells, Ca2+ dye fluorescence, FDSS; hits give low values; inhibition of EC80 agonist-evoked calcium signal; Mucolipin-1 (Homo sapiens), Q9GZU1; in the data active means activity change below about -50%; inconclusive means about -30% to -50%; inactive means above about -30%;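 note: stimulus is agonist 54-4 at its EC80 concentration; % is set by controls: 0 for no effect and ±100 for the full control effect; compound concentration not given in the record; the text of the record puts the active cut at -80%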
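Tet-induced TRPML1-DL cells loaded with Ca8 no-wash calcium dye were read kinetically on FDSS. Compound addition was followed by EC80 agonist 54-4 (4 uM final); inhibition was read over 110 s.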
An asterisk follows results filed as active; ? = inconclusive; / = not tested or not shown. This is a random part of the collection; overall some 0.95% were active at least once.

Molecule,TRPML1 agonist,TRPV1 PAM,Six1-Eya2 blk,CtBP-E1A blk,D2 PAM,TRPML1 inh
COc1cc(NC(=O)C2=C(N3CCOCC3)/C(=C\c3ccc(Br)cc3)CC2)cc(OC)c1OC,-0.4,4,8,3,0,11
COc1cccc(-c2nc(C(N)=O)c3[nH]c(=O)n(-c4ccccc4)c3n2)c1OC,-0.9,7,2,0,-1,2
COc1ccc(S(=O)(=O)NC(C)C(=O)NCc2cccnc2)cc1OC (stereo not drawn),-0.2,1,27,0,-3,-1
CN1CCC(OC(=O)COc2ccc(Br)cc2)CC1,1.3,0,-2,9,-6,-6
CN1OCC(S(=O)(=O)c2ccccc2)C1c1ccccc1 (stereo not drawn),0.0,6,-2,4,-4,-7
N=C1/C(=C\c2coc3ccccc3c2=O)C(=O)N=C2SC=CN12,72*,0,-18,/,-19,-7
Cc1ccc2c(c1)CCCN2C(=O)c1cc(C)c(C)s1,2.8,-7,4,12,3,21
CCn1cc(CN2CCC(n3nccc3NC(=O)c3cccc(F)c3)CC2)cn1,0.0,1,5,16,17,-5
CCOC(=O)c1cccc(NC(=O)CSc2nnc(COc3ccccc3)n2CC)c1,2.5,16,-8,-11,-8,4
COc1ccc(C)cc1N(C(=O)c1ccco1)C(C(=O)NC1CCCC1)c1ccc(N2CCOCC2)cc1 (stereo not drawn),0.2,-5,-13,0,-10,-9
Cc1ccnc(NC(=O)CCC(=O)N(CC(=O)NCc2ccccc2)Cc2ccccc2)c1,-1.1,-10,0,-1,-15,5
COc1cc(NC(=O)CSc2nc3ccccc3cc2Cc2ccccc2)cc(OC)c1,2.2,19,-4,-3,-7,17
CCC(C)N(C(=O)COC(=O)C1C(C(=O)OC)=C(C)NC(C)=C1C(=O)OC)C1CCS(=O)(=O)C1 (stereo not drawn),0.5,1,-3,2,-4,15
Cc1ccc(NC(=O)CSCC(=O)N2CCCc3ccccc32)cc1,1.5,1,0,-2,-5,7
CC(=O)Nc1ccc(SC(Sc2ccc(NC(C)=O)cc2)c2ccccc2)cc1,1.3,/,0,-3,1,-15
CN1/C(=C\C=[N+](C)c2ccccc2)C(C)(C)c2ccccc21,0.3,/,-4,3,-5,-10
CCCCC[C@H](C)N1C[C@H](COCc2ccccc2)Oc2cc(N3CC[C@@H](N(C)C)C3)ccc2S1(=O)=O,-0.7,/,?,-26,/,/
O=C(CCNS(=O)(=O)c1cccs1)Nc1nccs1,0.6,0,13,-1,-2,-10
Clc1ccc(SCCOCCN2CCCCCC2)cc1,-0.8,-3,-8,/,-64,39
O=C(CN1C(=O)NC2(CCCC2)C1=O)NC(c1ccccc1)c1ccccc1,-1.5,/,11,10,-3,25
CN(C)C1(CNC(=O)C2CCC(=O)N(Cc3ccc(Cl)cc3)C2)CCCCC1 (stereo not drawn),0.7,5,7,/,-11,22
CC1=C(C(=O)OCc2ccccc2)C(c2cccc([N+](=O)[O-])c2)NC(=O)N1C (stereo not drawn),0.4,-6,-2,-2,1,8
CN(CC(=O)Nc1ccc(Cl)c(C(F)(F)F)c1)C(=O)Cc1cccs1,-0.4,-5,8,-1,-23,-1
Cc1cc(C)cc(C(=O)N(NC(=O)Nc2ccc(Cl)cc2)C(C)(C)C)c1,1.8,14,-1,1,-17,-1
Cn1c(=O)oc2cc(S(=O)(=O)NCCC(=O)Nc3ccc4c(c3)OCCO4)ccc21,0.7,-12,0,-8,-8,36

Continuation.
Molecule,TRPML1 agonist,TRPV1 PAM,Six1-Eya2 blk,CtBP-E1A blk,D2 PAM,TRPML1 inh
CN(Cc1ccccc1)CC(O)CN(C)Cc1ccccc1,1.1,/,1,-3,-10,35
O=C(O)C1CCN(c2ccc(S(=O)(=O)N3CCCCC3)cc2[N+](=O)[O-])CC1,-0.5,-5,-1,2,-12,-8
O=C(Cn1c(-c2ccccc2)c[n+]2ccsc12)c1ccccc1,0.9,5,7,/,-4,-13
CC1=C(C(=O)N2CCOCC2)CC(CC(=O)NCCN2CCOCC2)C(=O)N1Cc1ccccc1 (stereo not drawn),0.8,/,12,-13,0,22
Nc1ccc(C=C2C=Cc3ccccc32)cc1,-0.5,/,?,-20,-34,23
O=C1NC2=C(C(=O)CCC2)C(c2ccccc2)N1 (stereo not drawn),-0.5,0,7,2,-2,-8
O=C(NC1CCCCC1)C(c1ccco1)N(C(=O)C(F)(F)F)C1CC1 (stereo not drawn),-0.6,-13,25,37,-4,-2
COc1cc(/C=N/NS(=O)(=O)c2ccc(C)cc2)ccc1OCc1cccc(C(=O)O)c1,0.1,5,9,-2,6,-9
CCCCC(CC)C(=O)Nc1cc(C(=O)NCc2ccc(C)cc2)ccc1N1CCC2(CC1)CC(c1cccc(Br)c1)=NO2 (stereo not drawn),-0.2,-33,-3,4,-3,14
CCOC(=O)c1ccc(NC(=O)CSc2nnc(Cn3c(=O)sc4ccccc43)n2C)cc1,1.9,3,0,1,-3,7
O=C(OCc1ccco1)c1cccnc1,5.2,1,5,8,2,16
Cc1nn(CC(=O)N2CCN(S(=O)(=O)c3ccccc3)CC2)c(C)c1[N+](=O)[O-],0.2,-12,3,-1,-1,-14
O=C(CSc1nc2c(c(=O)n1-c1ccc(Cl)cc1)SCC2)NCC1CCCO1 (stereo not drawn),2.3,-12,5,4,-15,17
Cc1cc(CN2CCCC(C(=O)Nc3cccc(-n4cccn4)c3)C2)cc(C)c1O (stereo not drawn),0.1,-5,-1,-9,-34,-10
O=C1C(Cl)=C(O)C2(Cl)C(Cl)=C(Cl)C12Cl (stereo not drawn),-0.7,/,9,9,3,-6
COc1cccc2cc(C(=O)NCc3ccc(C)cc3)c(=N)oc12,1.6,-10,1,-20,-9,-7
CCc1ccccc1NC(=O)CNC(=O)CCC(=O)c1cc(C)sc1C,-0.3,/,-1,-13,-9,-9
Cc1c(NS(=O)(=O)c2cccc(C(=O)OCC(=O)N(C)C3CCCCC3)c2)c(=O)n(-c2ccccc2)n1C,-0.5,2,-1,-8,-5,13
CCOC(=O)C(=CNc1ccc(C(F)(F)F)cc1Cl)C(=O)OCC,0.8,/,2,5,-6,12
Cc1[nH]nc2c1C(c1cccs1)C1=C(CCCC1=O)N2 (stereo not drawn),0.8,5,0,7,-5,-6
O=C(OCC(=O)N1CCCCCC1)c1ccc(S(=O)(=O)N2CCOCC2)cc1,-0.1,-2,-1,7,-2,18
O=C(O)c1ccc(NS(=O)(=O)c2ccc(Cl)c(Cl)c2)cc1O,-0.2,-6,0,23,24,-4
c1ccc(COc2ccc(OCCCNC3CCCC3)cc2)cc1,0.9,6,-16,-2,-35,4
CCOC(=O)CNc1c(-c2ccc(O)cc2)nc2ccccn12,0.3,0,-18,-29,4,34
CC(C)CC1NC(=O)N(CC(=O)N2CCCc3ccccc32)C1=O (stereo not drawn),-0.3,-2,-1,0,-6,18

Brought forward from above: 2 compounds, followed by the next part.
Molecule,TRPML1 agonist,TRPV1 PAM,Six1-Eya2 blk,CtBP-E1A blk,D2 PAM,TRPML1 inh
CCOC(=O)CNc1c(-c2ccc(O)cc2)nc2ccccn12,0.3,0,-18,-29,4,34
CC(C)CC1NC(=O)N(CC(=O)N2CCCc3ccccc32)C1=O (stereo not drawn),-0.3,-2,-1,0,-6,18
CC1(C)C[C@H]2C3=CCC4[C@@]5(C)CC[C@H](O)C(C)(C)C5CC[C@@]4(C)[C@]3(C)[C@@H](O)[C@@H](O)[C@@]2(CO)[C@@H](O)[C@@H]1O (stereo partly drawn),1.1,/,0,5,0,14
Cc1cc(NC(=O)c2ccco2)ccc1NC(=O)c1ccco1,-0.8,-3,-1,5,-1,38
COc1ccc2[nH]c(C(=O)NCc3ccccc3)c(C)c2c1,-0.1,11,-3,0,-3,7
CC(C)NC(=O)CN(Cc1ccccc1)S(=O)(=O)c1ccccc1,4.3,-5,5,6,-1,-15
O=C(CNS(=O)(=O)N1CCOCC1)N/N=C/c1cccnc1,0.2,17,0,-2,0,-19
Cc1cc2c(n1-c1ccc(C(N)=O)cc1)CC(C)(C)CC2=O,-1.1,11,-2,-4,-3,26
Cc1ccc(OCc2cc(C(=O)N3CCN(C4CCCC4)CC3)no2)cc1C,-0.7,-16,-9,-2,-19,28
CC1(C(=O)NCc2ccco2)Cc2c(-c3ccc(C(N)=O)cc3)ccnc2O1 (stereo not drawn),-0.6,/,-5,3,9,/
COC(=O)c1c(NC(=O)Cc2ccccc2)sc(C)c1C,2.4,0,14,-1,-4,22
COC(=O)c1ccc(NC(=S)NCCCn2ccnc2)cc1,1.6,-4,-2,0,-8,-8
Cc1nn(C)c(C)c1/C=C(\C#N)C(N)=O,0.4,1,4,1,-7,14
O=C(Cc1ccccc1[N+](=O)[O-])OCC(=O)c1c[nH]c2ccccc12,2.9,-5,-9,-1,-25,-13
CCOc1ccc(C2C(C(=O)c3ccco3)=C(O)C(=O)N2CCCn2ccnc2)cc1 (stereo not drawn),-0.6,4,-1,3,-13,-5
O=c1cc(CN2CCN(c3ccc(F)cc3)CC2)c2cc3c(cc2o1)CCCC3,-0.8,-13,-3,3,-12,8
O=c1[nH][nH]c2c1[C@H](CCc1cccc(Cl)c1)O[C@H](CCc1ccccc1)C2,-0.6,/,-8,-11,/,/
NC(=O)C1CCCN1Cc1ccc2c(c1)OCO2 (stereo not drawn),0.0,/,-7,10,-21,35
CN(C)S(=O)(=O)c1cc(NC(=O)CNCc2ccccc2)ccc1Cl,-0.3,-7,6,0,-14,-1
CNC(=O)NC(=O)Cn1nc2n(c1=O)-c1ccccc1SC2,1.5,17,2,-5,0,46
Cc1ccc(-c2nc3ccccn3c2C=O)cc1,0.0,-7,-3,/,-12,-3
C/C(=N/N1CCN(Cc2cccc3ccccc23)CC1)c1ccco1,2.3,1,-27,-27,-10,9
CC(C)CC(CO)N1CCN(C(=O)c2ccc(C(C)(C)C)cc2)CCC1=O (stereo not drawn),2.1,0,1,/,4,18
O=c1c(O)cccc2cc(O)c(O)c(O)c12,-1.0,-5,?,/,-12,5
CCCCCNc1nc2sc3c(c2c(=O)n1-c1cccc(Cl)c1)CCN(C)C3,1.0,-33,-12,-10,-14,18

As entered above:
For D2 PAM, O=C(CNS(=O)(=O)N1CCOCC1)N/N=C/c1cccnc1 is entered as 0
For TRPML1 inh, Cc1ccc(OCc2cc(C(=O)N3CCN(C4CCCC4)CC3)no2)cc1C is entered as 28
For Six1-Eya2 blk, CC1(C(=O)NCc2ccco2)Cc2c(-c3ccc(C(N)=O)cc3)ccnc2O1 (stereo not drawn) is entered as -5
